UCH37 DUB inh – inhibitors of human deubiquitinating enzyme UCH37; purified proteasome/UCH37, Ub-AMC cleavage fluorescence; inhibition, % (test concentration not listed); 330,000 tested, 0.33% active; AID 588478;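 active = mean of two replicates above 20%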;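 also: 0% = compound-free wells with enzyme and 100% = wells lacking proteasome; stock transfer was 100 nL into about 20 µL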
Target sequence (Q9Y5K5 whole entry, looked up): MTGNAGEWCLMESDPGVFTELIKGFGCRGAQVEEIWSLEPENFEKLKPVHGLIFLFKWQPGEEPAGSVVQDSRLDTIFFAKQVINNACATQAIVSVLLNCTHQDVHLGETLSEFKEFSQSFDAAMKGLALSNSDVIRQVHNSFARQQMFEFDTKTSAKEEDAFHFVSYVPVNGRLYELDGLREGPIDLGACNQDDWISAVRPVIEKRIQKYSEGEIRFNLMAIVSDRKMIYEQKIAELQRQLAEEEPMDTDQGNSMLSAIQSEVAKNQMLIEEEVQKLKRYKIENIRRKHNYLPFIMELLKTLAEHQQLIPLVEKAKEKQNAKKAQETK
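System: Proteasome-associated human UCH37 deubiquitinase; Input: 0.15 nM proteasome in added enzyme buffer; Also added: Ub-AMC substrate from 1 µM stock; Incubation: 30 min compound-proteasome preincubation then 25 min substrate reaction, room temperature; Detection: fluorescence, ex 355 nm, em 460 nm; Read-out: % inhibition of Ub-AMC cleavage fluorescence; Benchmarks: no-proteasome and no-compound wells.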
B2AR ag – agonists of human beta-2 adrenergic receptor inducing internalization | 340,000 tested, 0.43% active | Am2.2-beta2AR cells, FAP receptor internalization, flow cytometry; reference of the scale not given here | response, % (test concentration not listed);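 active = response above a set limit, near 3 SD of response in nonfluorescent compounds, cut at about 42% in these data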;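 also: stock transfer was 100 nL into about 11 µL; a reference agonist was the positive control; negative values mostly stem from fluorescent compounds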
FGF22 binding – binders of recombinant human FGF22 by thermal shift; Q9HCT0; SYPRO orange fluorescence; percent of sucrose octasulfate shift, DMSO zero; calls only at 9.99 µM; 340,000 tested, 1.5% active; AID 651658;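 active = melting point raised past a set limit in the mean and every replicate; inconclusive = no clear call; three in four hits are not shown here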
Target sequence (Q9HCT0 whole entry, looked up): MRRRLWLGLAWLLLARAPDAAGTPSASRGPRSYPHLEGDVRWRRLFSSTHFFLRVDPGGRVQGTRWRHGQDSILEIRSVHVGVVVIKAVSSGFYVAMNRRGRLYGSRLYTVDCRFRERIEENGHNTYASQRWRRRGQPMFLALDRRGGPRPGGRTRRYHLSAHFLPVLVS
HNF4A DNA FP – change in binding of human HNF4 alpha to DNA | activity change, % at 10 µM | AID 1224865 | HNF4a-FITC DNA binding, fluorescence polarization, 1 h | 360,000 tested, 0.3% active; in the data active = activity change above about 30%, passing the limit was not always enough;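 also: controls were the assay level and a saturating level of protein; the project sought stronger binding though the title names inhibitors; some compounds called inactive have numbers as strong as hits; positive values seem to mean higher polarization but the record does not say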
Target sequence (P41235 whole entry, looked up): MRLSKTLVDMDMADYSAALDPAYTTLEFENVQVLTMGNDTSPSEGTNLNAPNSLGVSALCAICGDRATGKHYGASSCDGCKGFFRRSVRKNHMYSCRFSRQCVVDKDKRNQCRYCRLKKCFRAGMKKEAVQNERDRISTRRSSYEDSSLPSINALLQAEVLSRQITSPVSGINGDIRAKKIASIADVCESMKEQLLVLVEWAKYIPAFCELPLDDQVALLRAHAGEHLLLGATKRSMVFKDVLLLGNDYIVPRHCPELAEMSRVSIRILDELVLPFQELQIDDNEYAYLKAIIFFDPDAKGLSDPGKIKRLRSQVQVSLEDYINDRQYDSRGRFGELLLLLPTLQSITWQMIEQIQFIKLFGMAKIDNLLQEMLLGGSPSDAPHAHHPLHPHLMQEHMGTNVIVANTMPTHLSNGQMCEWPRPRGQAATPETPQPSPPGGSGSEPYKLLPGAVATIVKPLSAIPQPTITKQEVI
Ecoli growth – E. coli growth inhibition; Escherichia coli growth, OD600, 23 h; stronger effect = lower value; 330,000 tested, 0.21% active; OD600 absorbance (test concentration not listed);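 active = OD600 absorbance below the run mean of sample wells minus 3.6 SD, in any replicate, cut at about 0.56 in these data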;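 also: stock transfer was 300 nL into about 60 µL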
ALR H2O2 inh – blocks human ALR sulfhydryl oxidase activity; P55789; purified ALR, DTT oxidation, H2O2 HRP-luminol luminescence; inhibition, % (no concentration beside the values); 290,000 tested, 3.8% active;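 active = mean and each replicate at 75% or more; inconclusive = only one of the two met; inactive = neither met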;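 also: stock transfer was 7.5 nL into about 7.5 µL; 0% = neutral wells and 100% = wells with inactivated enzyme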
LANA-H2B inh – blocks KSHV LANA binding to histone H2A/H2B; cell-free LANA-H2A/H2B peptide, fluorescence polarization; inhibition, % (test concentration not listed); 320,000 tested, 0.6% active; Q9QR71; in the data active = inhibition mostly above about 10%, no sharp cut-off; inactive = mostly below about 6.7%;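 also: stock transfer was 7.5 nL into about 10 µL; 0% = median of vehicle wells and 100% = median of positive control wells; one replicate is shown; the record names a cut of 25% in any replicate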
Active calls of the source: *; i = inactive; u = inconclusive; x = not tested or not shown; + = active, no number. A portion of the library; the hit share may differ from the screen's.

SMILES	UCH37 DUB inh	B2AR ag	FGF22 binding	HNF4A DNA FP	Ecoli growth	ALR H2O2 inh	LANA-H2B inh
CCOC(=O)C1(Cc2ccc(OC)cc2)CCN(S(C)(=O)=O)CC1	1.4	-3.6	i	-4.3	0.655	21.5	-5.9
CCOC(=O)c1ccccc1NC(=O)CSc1nc2ccncc2[nH]1	0.0	3.1	i	1.9	0.661	-1.5	3.0
O=C1NC2=C(C(=O)CCC2)C(c2ccc([N+](=O)[O-])cc2)N1 (stereo unspecified)	4.0	-1.5	i	-0.1	0.67	-0.8	4.7
COc1ccc(-c2nnc(-c3ccc(Br)o3)o2)cc1OC	-4.0	10.7	x	1.8	0.678	-4.7	3.7
N#Cc1c(Cl)nsc1NN	0.9	10.0	i	4.1	0.66	75.0	6.8
CCOC(=O)/C(C#N)=C/c1cn(CCOc2ccc(OC)cc2)c2ccccc12	2.8	-16.7	i	0.1	0.707	-3.3	-4.1
O=C(CN1C(=O)NC2(CCSC2)C1=O)NCc1ccccc1 (stereo unspecified)	-1.2	-1.2	i	-4.4	0.652	-23.3	-3.0
O=C1CSC(c2ccccc2F)N1c1ccccc1F (stereo unspecified)	0.2	-0.1	i	4.9	0.656	5.4	0.5
O=C(Cn1cnc([N+](=O)[O-])n1)c1ccccc1	0.6	-0.7	i	1.1	0.664	-51.8	2.2
CCOC(=O)C#CC(CCc1ccccc1)OS(N)(=O)=O (stereo unspecified)	4.3	-7.7	i	5.8	0.707	x	-0.4
COc1ccc(CNCCC2(O)CC(C)N(C)CC2C)cc1OC (stereo unspecified)	x	1.6	x	0.1	x	-3.8	-0.7
CN(C(=O)COC(=O)Cn1cnc2c1c(=O)n(C)c(=O)n2C)C1(C#N)CCCCC1	1.4	-1.4	i	-0.6	0.698	x	2.6
COc1ccc(N=C2O/C(=C/c3sc(=S)n(CC4CCCO4)c3O)N=C2C#N)cc1 (stereo unspecified)	4.9	-32.2	i	31.1	0.621	43.3	-8.1
CS(=O)(=O)N1CCN(C(=O)c2cc(-c3ccccc3)nc3ccccc23)CC1	5.3	-8.3	x	0.1	0.734	-7.5	9.7*
O=C(CCC(=O)Nc1ccc(F)cc1)N/N=C/c1ccc(O)cc1O	x	9.6	i	0.9	x	u	8.1
Fc1ccc(Nc2ccc(-c3ccc(F)cc3)nn2)cc1	2.2	-8.3	i	1.5	0.617	-2.3	1.6
CCn1c(=O)c2sccc2n2c(CCCC(=O)NC3CCN(Cc4ccccc4)CC3)nnc12	1.9	-11.1	i	-1.0	0.694	-3.0	2.3
O=C(CSC1=NS(=O)(=O)c2ccccc2N1)c1ccccc1	3.4	6.8	i	0.8	0.697	-1.3	4.1
CCN(CC)S(=O)(=O)c1cccc(NC(=O)c2cccc(S(=O)(=O)N3CCCC3)c2)c1	-1.9	8.4	i	-1.4	0.713	x	-4.4
CCCCC(=O)Nc1nnc(CCc2ccccc2)s1	-0.5	-7.9	i	4.5	0.686	-6.0	1.0
Cc1ccc(C(=O)OCC(=O)c2c[nH]c3ccccc23)cc1NC(=O)c1ccco1	0.7	1.4	i	-6.6	0.684	-5.5	+
CCOC(=O)c1sc(NC(=S)NC(=O)c2ccccc2)nc1C	3.9	2.8	i	-0.1	0.727	x	-3.1
O=C(COC(=O)c1ccc(F)cc1F)Nc1cccnc1Cl	0.9	7.9	i	-0.9	0.686	-2.0	6.1
Cc1ccc(CNC(=O)c2cc(-c3ccccc3C)nn2CC2CC(c3cccnc3)=NO2)cc1 (stereo unspecified)	0.1	-5.5	i	-0.1	0.682	-5.3	7.8
CCSc1nc2sc3c(c2c(=O)n1CC)CC(C)(C)OC3	-0.8	1.1	x	1.7	0.726	1.7	-5.2
CC(=O)Nc1ncc(Cc2cc(Cl)ccc2Cl)s1	5.3	-3.7	i	-0.8	0.722	2.9	6.3
COc1ccc(N(CC(O)CN2CCOCC2)S(=O)(=O)c2ccccc2)cc1 (stereo unspecified)	-0.6	-1.5	i	-0.1	0.664	-15.7	2.2
COc1ccc(CCNC(=O)c2cc3c(=O)n4ccccc4nc3n(CCCN3CCOCC3)c2=N)cc1	x	13.3	i	8.2	x	-33.9	-7.8
CCOc1ccc(/C(O)=C2/C(=O)C(=O)N(CCN(CC)CC)C2c2cccs2)cc1 (stereo unspecified)	1.2	-3.8	i	3.8	0.656	-5.1	2.1
CC12c3ccccc3C(c3ccccc31)C1C(=O)N(c3ccncc3)C(=O)C12 (stereo unspecified)	0.4	2.9	i	-2.4	0.69	10.0	2.2
Cc1ccsc1C(=O)OCC(=O)N(Cc1ccccc1)C(C)C	3.5	-5.8	i	-3.2	0.724	-1.2	-5.0
COCCCNC(CC(=O)Nc1ccc(OC)cc1OC)C(=O)O (stereo unspecified)	3.5	0.6	x	-1.3	0.754	-6.3	-2.0
Clc1cccc(-c2ccc3ncnc(NCc4cccs4)c3c2)c1	-1.6	0.0	i	3.4	0.736	-0.5	-3.0
COCCN(C(=O)COC(=O)/C=C/c1cccc(OC)c1)c1c(N)n(CC(C)C)c(=O)[nH]c1=O	-32.8	-1.5	i	-3.2	0.64	x	x
COc1ccccc1NC(=O)CN1C(=O)COc2ccc(C)cc21	3.0	2.8	i	0.3	0.656	x	-2.4
O=[N+]([O-])c1ccc(CCNc2cccc3ccccc23)c([N+](=O)[O-])c1	x	0.8	i	-0.4	x	-6.6	-3.6
CNC(=O)COC(=O)CCC(=O)c1ccc(Cl)cc1	0.9	3.0	i	3.0	0.716	2.8	4.2
CC(C)(C)NS(=O)(=O)c1ccc(/C=C/C(=O)O)cc1	1.7	-2.5	i	-0.3	0.696	-3.2	-1.2
OCCNc1ncnc2c1cnn2Cc1ccccc1	3.0	-5.2	i	-1.6	0.627	1.2	-0.1
CCOc1ccc(Nc2ncnc3c2cnn3Cc2ccccc2)cc1	-4.8	6.9	i	7.2	0.645	2.3	2.4
O=C(O)c1cc2cc(Cl)ccc2[nH]1	x	-3.5	i	-1.5	x	x	x
COC(C[C@H]1O[C@H]1C(=O)COCc1ccccc1)OC	0.9	-1.5	i	5.6	x	x	x
COc1ccccc1NC(=S)N1CCOCC1	2.7	-3.3	i	4.7	0.678	-5.6	2.6
CCSc1nnc(SCC(=O)Nc2cc(C)on2)s1	0.2	-9.2	i	-7.8	0.648	-3.5	3.0
COc1cc(CNCCCO)ccc1OCC(=O)NC(C)(C)C	-1.2	-3.9	i	3.4	0.719	x	-6.1

Whole records from above:
Clc1cccc(-c2ccc3ncnc(NCc4cccs4)c3c2)c1 reads UCH37 DUB inh = -1.6; B2AR ag = 0.0; FGF22 binding = i; HNF4A DNA FP = 3.4; Ecoli growth = 0.736; ALR H2O2 inh = -0.5; LANA-H2B inh = -3.0
CCSc1nnc(SCC(=O)Nc2cc(C)on2)s1 reads UCH37 DUB inh = 0.2; B2AR ag = -9.2; FGF22 binding = i; HNF4A DNA FP = -7.8; Ecoli growth = 0.648; ALR H2O2 inh = -3.5; LANA-H2B inh = 3.0

(further entries)
SMILES	UCH37 DUB inh	B2AR ag	FGF22 binding	HNF4A DNA FP	Ecoli growth	ALR H2O2 inh	LANA-H2B inh
O=C(CCC(=O)OCC(=O)c1ccccc1)Nc1cccc(Cl)c1	2.0	-3.0	i	-2.7	0.651	1.3	3.0
O=C(CCS(=O)(=O)c1ccccc1)Nc1cccc2c1C(=O)NC2=O	-32.9	-18.9	i	1.8	0.709	-7.9	-0.6
COc1ccc(NS(=O)(=O)c2cc(NC(=O)c3ccncc3)ccc2N2CCOCC2)cc1	-0.7	16.5	x	0.2	0.723	x	5.4
CCO[C@@H]1OC(C(N)=O)=C[C@H](C2CC2)[C@H]1CCCO	1.0	-5.5	i	-0.5	x	-6.0	1.6
CCC(NC(=O)Nc1ccc(O)cc1)(C(F)(F)F)C(F)(F)F	3.3	-5.6	x	-2.8	0.728	98.6*	-1.8
CC[C@@H]1C/C=C\Cc2ccccc2[C@@H](C(=O)C[C@H](O)CC(C)=O)OC1=O	-1.0	-8.4	i	1.6	0.704	1.0	+
O=S(=O)(Nc1ccccc1)c1ccc(Oc2ncc(C(F)(F)F)cc2Cl)cc1	3.9	-4.2	x	-0.5	0.67	x	6.1
CCCOC(=O)C1=C(C)NC2=C(C(=O)CCC2)C1c1cccs1 (stereo unspecified)	-66.6	-5.1	x	1.0	0.712	4.6	0.8
O=C(NCCC(=O)N1CCCCCCC1)c1ccc(Br)cc1	1.1	-3.1	i	4.9	0.64	-7.1	-3.7
O=C(CCn1c(=S)oc2ccccc21)NC1CCCCCC1	2.1	1.2	i	-1.8	0.727	-8.5	-4.0
C=CCNC(=S)NCCCCC1NC(=S)N(CC=C)C1=O (stereo unspecified)	3.0	1.6	x	-1.4	0.691	8.4	-0.5
COc1cccc(NC(=O)NCCCCc2ccccc2)c1	3.4	8.7	i	5.5	0.711	-6.1	2.3
COc1nc2ccccc2nc1CCC(=O)O	-40.6	-3.7	i	0.2	0.657	3.4	0.0
N#CNc1nc(O)cc(=O)[nH]1	4.1	0.0	x	0.8	0.635	x	0.6
O=C(NC12CC3CC(CC(C3)C1)C2)c1ccco1	3.9	-4.2	i	1.5	0.646	-6.5	0.5
COc1ccc(NC(=O)C2CC(=O)N(C)C(=Nc3ccc4c(c3)OCO4)S2)cc1 (stereo unspecified)	1.0	2.8	i	2.5	0.691	-4.5	3.2
COc1ccc(NC(=S)N2CCN(S(=O)(=O)c3ccc(F)cc3)CC2)cc1	3.6	-2.2	i	-3.3	0.696	-22.1	-4.3
Cc1ccc(N(CC(=O)Nc2ccccc2-c2ccccc2)S(=O)(=O)c2ccccc2)cc1	4.3	-0.2	x	-2.9	0.797	-22.8	3.5
Fc1ccccc1CNC(=S)NC1CCCCC1	2.7	-6.8	i	0.7	0.675	-6.2	1.2
O=C(Nc1cnn(Cc2ccc(F)cc2)c1)c1cc2nc(-c3ccco3)cc(C(F)(F)F)n2n1	-3.0	-10.8	x	0.8	0.684	-3.0	-8.0
COc1ccc(N2CC(C(=O)Nc3cc(C)ccn3)CC2=O)cc1 (stereo unspecified)	3.0	-3.1	i	-0.5	0.695	-2.9	13.4
O=c1c2ccccc2nnn1Cc1cccc2ccccc12	3.0	-8.4	i	-4.8	0.698	-0.5	2.4
CCSc1nnc(NC(=O)[C@@H](NC(=O)c2cccc(C)c2)C(C)C)s1	0.8	0.4	x	2.4	x	x	x
O=C(CSc1nc2[nH]ncc2c(=O)n1-c1ccccc1Br)NCc1ccco1	0.6	0.9	x	-5.8	0.631	x	-1.6
O=C(CCCC(=O)N(c1ccc(F)cc1)C(C(=O)NC1CCCC1)c1ccc(O)cc1)Nc1ccccn1 (stereo unspecified)	2.5	6.9	i	0.1	0.719	-2.0	-0.1
COC(=O)c1sccc1NS(=O)(=O)c1ccc(OC)cc1	5.0	0.8	x	-1.8	0.671	-2.4	-2.1
COC(=O)c1cccc(NC(=O)/C=C/c2ccc3c(c2)OCO3)c1	-10.0	2.5	x	-1.6	0.706	x	-0.6
CN1CCN(C(=O)c2ccc3c(c2)S(=O)(=O)c2ccccc2C3=O)CC1	1.3	-2.1	i	6.1	0.788	-4.7	-2.9
Cc1ccc(O)c(/C=N/NC(=O)CN2CCCC2)c1	x	5.1	i	1.0	x	19.2	2.7
O=C(NC(=S)NNC(=O)c1ccccc1O)c1ccc([N+](=O)[O-])cc1	x	9.8	i	-1.4	x	4.2	1.3
C=CCOc1ccc(C2OC34CCCCC3C(C#N)(C#N)C2(C#N)C(=N)O4)cc1 (stereo unspecified)	-10.7	4.5	x	-10.9	0.712	-46.9	10.5
O=C(Nc1cc([N+](=O)[O-])ccc1N1CCCC1)c1ccccc1	1.0	1.2	x	-3.3	0.688	-8.2	2.7
CSc1nnc(NC(=O)c2nc(S(=O)(=O)Cc3ccccc3)ncc2Cl)s1	x	9.0	i	-3.0	x	97.4*	x
CCOC(=O)[C@@H]1[C@H]2COc3cc(OC)ccc3[C@@H]2N2C(=O)N(c3ccccc3)C(=O)[C@@]12C	2.9	-3.1	i	2.4	0.789	-9.0	4.0
COc1ccc(OC)c(C2CC(=O)N3CN(c4cccc(Cl)c4C)CSC3=C2C#N)c1 (stereo unspecified)	0.4	-4.5	i	1.4	0.755	-54.9	1.4

Screens: PubChem BioAssay, several laboratories
